Tgondii IFNg = T. gondii growth inhibition with IFN-gamma, primary screen, cell-based; Toxoplasma gondii growth in IFN-gamma-treated host cells; stronger effect = lower value; reference of the scale not given here; activity change, negative = inhibition, %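 (about 20 µM by stock and volumes)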; 3.8% of 69,000 active;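 active means below -70%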;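 further: host cells are HeLa cells infected with Toxoplasma gondii; parasite growth read as luciferase light; one replicate is shown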
Numbers without * were called inactive; & = joins results of further samples. This is a subset, so the mix of outcomes need not match the whole.

SMILES	Tgondii IFNg
CCOc1ccc(NC(=O)C(=O)NCCc2sc(-c3ccc(Cl)cc3)nc2C)cc1	74
CCOC(=O)[C@H](CCc1ccccc1)N[C@@H](C)C(=O)N1CCC[C@H]1C(=O)O	-39&7
CCCN1CC(NC(=O)c2nnc3n2CCCC3)CC1=O (stereo not drawn)	-25
COc1ncccc1NC(=O)c1cc(-c2cnc(N3CCCC3)nc2)cn1CC1CC1	-45
O=C(NCc1ccc(-n2cncn2)cc1)c1scc2c1OCCO2	1
COc1ccc(-c2ccc3n(c2=O)C[C@H]2[C@H](CO)[C@@H](C(=O)N(C)C)[C@@H]3N2Cc2cncnc2)cc1	5
Cc1ccc(NC(=O)CNCc2scnc2-c2ccccc2)c(C)c1	-20
Cc1ccccc1CNC(=O)Cn1ncc2c(N3CCC(C)CC3)ncnc21	7
CCc1[nH]c2ccc(CNc3nccc(N4CCCC(O)C4)n3)cc2c1C (stereo not drawn)	5
CC1c2ncc(CN3CCN(C)CC3)n2CCN1S(C)(=O)=O (stereo not drawn)	147
COCC(C)NCCc1csc(-c2ccncc2)n1 (stereo not drawn)	8
CCCc1nncn1-c1cccc(C(F)(F)F)c1	2
CN(CCNC(=O)CSCc1ccccc1Cl)S(C)(=O)=O	0
Cc1cc(C)c2[nH]c(=O)c(-c3c(-c4ccccc4)ncn3C3CCNC3)cc2c1 (stereo not drawn)	236
Cc1cccc(N2CCC3(CC2)Cc2ccccc2CNC3=O)n1	-37
O=C(O)CCCn1cc(NC(=O)c2cc(F)c(F)cc2Cl)cn1	-37
Cc1ccc(S(=O)(=O)Oc2c(C)cc(-c3nn(C)c(=O)c4ccccc34)cc2C)cc1	-26
CN(C)C(=O)N1CCC2(CC1)CN(Cc1nccs1)CCO2	-1
O=C(CNCCn1nnc2ccccc21)Nc1ccc(Cl)cc1F	-5
CCc1cc(=O)[nH]c(C2CCCN2C(=O)CCc2cc(OC)no2)n1 (stereo not drawn)	68
CCN1CC(NC(=O)c2ccc(-c3nnn(C)n3)cc2)CC1=O (stereo not drawn)	12
CC(=O)Nc1ccc(Sc2ccccc2C(=O)O)c(C(=O)O)c1	25
O=C(N[C@H]1CC[C@H](CC(=O)N2CCOCC2)O[C@@H]1CO)c1cccc(F)c1	59
COc1ccc(CCC(=O)N2CCN(S(=O)(=O)c3cc4c5c(c3)CCN5C(=O)CC4)CC2)cc1	36
COc1ccc(CN(C)C[C@@H]2OCc3cnnn3CCCC(=O)N([C@@H](C)CO)C[C@H]2C)cc1	-15
CC1CN(c2nc3c(c(=O)[nH]2)CCN(c2c4c(nc5ncnn25)CCC4)C3)CC(C)O1 (stereo not drawn)	-18
CC(C)n1c(CN2CCC(C3(C)NC(=O)NC3=O)CC2)nc2ccccc21 (stereo not drawn)	8
Cc1nc(CN2C(=O)C[C@H]3[C@H]2CCN3CC2CCOCC2)cs1	-3
Cc1nn(-c2ccccc2)c(C)c1CC(=O)NC(c1nccn1C)C1CC1 (stereo not drawn)	1
CC(=O)O[C@H]1C[C@@]2(C)[C@@H](C[C@@H](O)[C@H]3[C@@]4(C)CC[C@@H](O)[C@@H](C)C4CC[C@@]32C)/C1=C(/CCC=C(C)C)C(=O)O (stereo partly drawn)	-28
C[C@@H](Cn1nnc2ccccc21)NC(=O)c1ccc2c(c1)OCO2	65
C/C=C/c1ccc([C@@H]2[C@H](C#N)N(c3nc(CC)cs3)[C@H]2CO)cc1	1
Cn1nc(C(C)(C)C)cc1C(=O)NCc1ccc2c(c1)OCO2	-52
COc1ccc(CCC2CCN(C(=O)c3cc(=O)n(C)c(=O)[nH]3)CC2)cc1	-8
CN(C)C(=O)COCC1CN(Cc2ccsc2)Cc2ncn(C)c21 (stereo not drawn)	10
CCC1(C)OC(=O)N(C)C1=O (stereo not drawn)	-4
Oc1cc2c(cc1O)C(c1ccccc1)CNCC2 (stereo not drawn)	15&31
CN1C(=O)c2cc(NS(=O)(=O)c3cccc(F)c3)ccc2OC[C@@H]2O[C@@H](CC(=O)N3CCc4ccccc4C3)CC[C@H]21	-27
COc1cc(C(=O)NCCc2sc(-c3cccc(F)c3)nc2C)cc(OC)c1OC	-3
CN(C)S(=O)(=O)c1ccc2c(c1)cc(C(=O)NCc1ccccn1)n2Cc1ccccc1	61
CN(C)C(=O)n1c(C(=O)NCC(F)(F)F)cc2c1c1ccccc1n2CC1CC1	-9
CC1(C)CC(CNCCC(c2ccc(F)cc2)c2ccco2)CCO1 (stereo not drawn)	8
Cc1ccc(C2(O)CCN(C(=O)[C@H]3[C@@H]4C=C[C@@]5(CN(C)C(=O)[C@@H]35)O4)CC2)nc1	1
O=C(CN1C(=O)CCc2cc(S(=O)(=O)N3CCCC3)ccc21)Nc1cccc(Cl)c1	-103*
O=C(CC1N=C2c3ccccc3N=C(SCc3ccc(F)cc3)N2C1=O)NCc1ccco1 (stereo not drawn)	-15
COc1ccc(CN(C)Cc2nc(-c3cccc(Cl)c3)oc2C)cc1OC	-7
COCCc1nnc(NC(=O)C2(CC3CC(c4ccc(C)cc4)=NO3)CCOCC2)s1 (stereo not drawn)	23
C[C@H]1CN([C@@H](C)CO)C(=O)CCCn2cc(nn2)CO[C@@H]1CN(C)C(=O)NC1CCCCC1	37
Cc1ccc2cc(C3(O)CCN(C(=O)c4ccc5c(c4)OCO5)CC3)ccc2n1	1
Nc1nnc(SCc2ccccc2)s1	10
O=C(NCCc1ccccc1)C1CCN(C2CCN(Cc3ccco3)CC2)CC1	-9
Cc1ccc(CN2CCc3ccc(=O)[nH]c3CC2)cc1	24
Cc1cc(C)n(C(C)CC(=O)NCCc2nc3ccc(Cl)cc3[nH]2)n1 (stereo not drawn)	-44
O=C(Cc1ccc(Cl)cc1)NCCc1csc(-c2cccc(F)c2)n1	-7
N#Cc1ccc(C(=O)N2CCC3(CC2)Nc2cccnc2NC3=NC2CCCC2)cc1	76
CCS(=O)(=O)N[C@@H]1CC[C@H](CC(=O)NCc2ccc(Cl)cc2)O[C@@H]1CO	-47
CCCNC(=O)Nc1ccc2c(c1)OC[C@@H](C)N(S(C)(=O)=O)C[C@H](C)[C@@H](OC)CN(C)C2=O	0
COc1ccc(Br)cc1CNC(=O)c1nc(Nc2ccc(C)cc2)c2ccccc2n1	-47
Cc1ccc2[nH]c3c(=O)n(CCCN4CCN(C)CC4)cnc3c2c1	-4
O=c1oc2ccccc2n1CCn1c2ccccc2c2nc3ccccc3nc21	3

Continued, overlapping the part above by 2 compounds.
SMILES	Tgondii IFNg
Cc1ccc2[nH]c3c(=O)n(CCCN4CCN(C)CC4)cnc3c2c1	-4
O=c1oc2ccccc2n1CCn1c2ccccc2c2nc3ccccc3nc21	3
CS(=O)(=O)NCC1CCN(C2CSCCSC2)C1 (stereo not drawn)	38
S=c1[nH]nc(Cn2nnc3ccccc32)o1	-16
O=C(Nc1cccc(Cl)c1)N[C@@H]1CC[C@H](CCn2cc(Cc3ccccc3)nn2)O[C@H]1CO	-47
OCC1(CC2CCCCO2)CCNCC1 (stereo not drawn)	-50
CC(CCc1ccc(O)cc1)NC1CCN(S(C)(=O)=O)CC1 (stereo not drawn)	-3
Cc1nc(COC[C@]23CCC[C@@H]2CN(C(=O)N(C)C)C3)cs1	6
CCCN1C[C@@H](C)[C@@H](OC)CN(C)C(=O)c2cc(NS(=O)(=O)c3ccccc3)ccc2OC[C@@H]1C	-13
Cc1oc(-c2ccc(OC(C)C)cc2)nc1Cn1ccn2nc(-c3ccc(F)cc3)cc2c1=O	-36
CCC1CN(Cc2ccnn2-c2ccccc2)CCN1C(C)C (stereo not drawn)	0
COCC(=O)Nc1ccc2c(c1)C(=O)N(C)[C@@H]1CC[C@H](CC(=O)NCCCN(C)C)O[C@@H]1CO2	23
Nc1cc(N2C[C@H]3CC=CC[C@H]3C2)nc(N2CCOCC2)n1	15
N#Cc1c(SCC(=O)c2cc3ccccc3o2)nc2c(c1C(F)(F)F)CCCC2	135
Cc1noc(C)c1S(=O)(=O)N(C)C[C@@H]1OCCCC[C@H](C)Oc2ccc(NC(=O)CCC(F)(F)F)cc2C(=O)N([C@H](C)CO)C[C@H]1C	95
CCCC(=O)Nc1ccc2c(c1)C(=O)N(C)[C@@H]1CC[C@@H](CC(=O)NCc3cccc(F)c3)O[C@@H]1CO2	-26
O=C(Cn1c(=O)cnc2ccccc21)Nc1ccc(Cl)c(Cl)c1	-44
Cc1ccc2c(c1)cc(C(=O)NCc1nc(Cc3ccccc3)no1)n2C	-53
CCc1nc(-c2cc(C(=O)N3CCCC3)c3ccccn23)cs1	153
O=C(Sc1cccs1)c1cncc(C#Cc2ccccc2)c1	4
COc1cccc(CNC(=O)COc2nc(C)nc3ccccc23)c1OC	3
C/C=C/c1ccc([C@H]2[C@@H](CO)N(C(C)=O)[C@H]2CN(C(C)=O)C2CCCC2)cc1	-4
COc1ccc(CN2CCCC2)cc1Oc1ccc(CO)cc1	3
O=C(N1CCOCC1)N1CCC2(CC1)NCCn1c(-c3ccc(F)cc3)cnc12	-36
COCCO[C@H]1CCN(C(=O)c2ccc[nH]2)[C@H]1Cc1cnn(C)c1	-7
CCOc1ccccc1N(Cc1nc(-c2ccccc2OC)oc1C)S(=O)(=O)c1ccccc1	-55
CCOc1ccccc1NC(=O)Cn1cnc2scc(-c3ccc(Cl)cc3)c2c1=O	-9
Cc1ccc(S(=O)(=O)Nc2ccc3c(c2)C(=O)N([C@@H](C)CO)C[C@@H](C)[C@H](CN(C)S(=O)(=O)c2cccs2)OCCCC[C@H](C)O3)cc1	-59
Cc1ccccc1N1CC2(CCN(C(=O)c3cnc4ccccc4c3)C2)CC1=O (stereo not drawn)	-3
Cc1nc2ccc(C(=O)NC(c3ccncc3)c3ccccc3C)cc2s1 (stereo not drawn)	15
COc1ccc2c3c([nH]c2c1)[C@@H](CO)N(S(=O)(=O)c1ccc(C)cc1)CC31CCN(C(=O)Cc2cccnc2)CC1	75
COc1ccc(CCC(C)NC(=O)C(C)(C)n2cncn2)cc1 (stereo not drawn)	-2
C[C@@H]1CN([C@@H](C)CO)C(=O)c2cc(N(C)C)ccc2O[C@@H](C)CCCCO[C@H]1CN(C)S(=O)(=O)c1ccc(F)cc1	161
CCOCCCNC(=O)c1nc(Nc2ccc(CC)cc2)c2ccccc2n1	-55
CC(C)c1ccc(S(=O)(=O)N2CCC3(CC2)Nc2ccccc2-n2cccc23)cc1	-36
Nc1nc2c(nc(SCc3ccccc3Br)n2C2OC(CO)C(O)C2O)c(=O)[nH]1 (stereo not drawn)	0
CC(C)C(C)n1nccc1NC(=O)c1cccc(-n2cnnc2)n1 (stereo not drawn)	-44
CN(C(=O)Cn1nc(C(F)(F)F)c2c1CCCC2)c1ccccc1	7
Cc1ccc2cc(CN3CCN(Cc4cccc(F)c4)CC3)c(=O)[nH]c2c1	4
O=C(c1cccc(F)c1)N1CC2(C1)[C@H](c1ccccc1)[C@@H](CO)N2C(=O)C1CCCCC1	-37
CC(C)c1ccccc1NC(=O)c1ccc(-c2ccccc2CO)o1	4
CCOC(=O)c1c(N)/c(=C\c2ccco2)c2n1C(=O)C(c1ccco1)SC=2C(=O)OC (stereo not drawn)	13
Cn1cc(N2CC3(COCCN(C(=O)C4(C#N)CC4)C3)OCC2=O)cn1 (stereo not drawn)	2
Cc1ccccc1CN1CCC2(CC1)COc1ccccc1S(=O)(=O)N(CC1CC1)C2	0
C=CC[C@@H]1CC=C[C@@H](C)N1C(=O)CCn1c(C)cc(C)nc1=O	-46
Cc1ccc(C2c3[nH]c4ccccc4c3CCN2C(=O)c2ccccc2Br)cc1 (stereo not drawn)	43
Cc1ccc(-c2coc(-c3ccc(NS(=O)(=O)c4cccc(Cl)c4)cc3)n2)c(C)c1	-39
C[C@H](CO)N1C[C@H](C)[C@@H](CN(C)C(=O)NC2CCCCC2)OCc2ccccc2-c2ccccc2C1=O	-20
Cc1cccc(Nc2nc3ccccc3n3nnnc23)c1	22
CCN1CCC2(CN(CC(C)C)CC23CCN(C(=O)c2ccc4[nH]ccc4c2)CC3)C1=O (stereo not drawn)	-2
O=C1CCc2cc(S(=O)(=O)NCc3ccc4c(c3)OCO4)cc3c2N1CCC3	0

Among those listed so far, 14 contain an aryl methoxy group.
SMILES	Tgondii IFNg
COc1ncccc1NC(=O)c1cc(-c2cnc(N3CCCC3)nc2)cn1CC1CC1	-45
COc1ccc(-c2ccc3n(c2=O)C[C@H]2[C@H](CO)[C@@H](C(=O)N(C)C)[C@@H]3N2Cc2cncnc2)cc1	5
CCc1cc(=O)[nH]c(C2CCCN2C(=O)CCc2cc(OC)no2)n1 (stereo not drawn)	68
COc1ccc(CCC(=O)N2CCN(S(=O)(=O)c3cc4c5c(c3)CCN5C(=O)CC4)CC2)cc1	36
COc1ccc(CN(C)C[C@@H]2OCc3cnnn3CCCC(=O)N([C@@H](C)CO)C[C@H]2C)cc1	-15
COc1ccc(CCC2CCN(C(=O)c3cc(=O)n(C)c(=O)[nH]3)CC2)cc1	-8
COc1cc(C(=O)NCCc2sc(-c3cccc(F)c3)nc2C)cc(OC)c1OC	-3
COc1ccc(CN(C)Cc2nc(-c3cccc(Cl)c3)oc2C)cc1OC	-7
COc1ccc(Br)cc1CNC(=O)c1nc(Nc2ccc(C)cc2)c2ccccc2n1	-47
COc1cccc(CNC(=O)COc2nc(C)nc3ccccc23)c1OC	3
COc1ccc(CN2CCCC2)cc1Oc1ccc(CO)cc1	3
CCOc1ccccc1N(Cc1nc(-c2ccccc2OC)oc1C)S(=O)(=O)c1ccccc1	-55
COc1ccc2c3c([nH]c2c1)[C@@H](CO)N(S(=O)(=O)c1ccc(C)cc1)CC31CCN(C(=O)Cc2cccnc2)CC1	75
COc1ccc(CCC(C)NC(=O)C(C)(C)n2cncn2)cc1 (stereo not drawn)	-2

Assay outcomes deposited in PubChem BioAssay by Broad Institute.
